Source: PubChem (National Center for Advancing Translational Sciences (NCATS))
TRPV1 PAM = HTS Assay for Compounds that Act as Potentiators of the Vanilloid Receptor 1 | Transient receptor potential cation channel subfamily V member 1 (Homo sapiens), Q8NER1 | TRPV1-expressing cells, Fluo-8 calcium influx, capsaicin EC20 potentiation; host cell line not named in the record; control for the full effect not named in the record | potentiation, % at 8.33 µM | 0.02% of 320,000 active | AID 540277, 2011; active means potentiation above 80%; inconclusive means 30% to 80%; inactive means below 30%; note: 0% is about no effect
Target sequence (Q8NER1 whole entry, looked up): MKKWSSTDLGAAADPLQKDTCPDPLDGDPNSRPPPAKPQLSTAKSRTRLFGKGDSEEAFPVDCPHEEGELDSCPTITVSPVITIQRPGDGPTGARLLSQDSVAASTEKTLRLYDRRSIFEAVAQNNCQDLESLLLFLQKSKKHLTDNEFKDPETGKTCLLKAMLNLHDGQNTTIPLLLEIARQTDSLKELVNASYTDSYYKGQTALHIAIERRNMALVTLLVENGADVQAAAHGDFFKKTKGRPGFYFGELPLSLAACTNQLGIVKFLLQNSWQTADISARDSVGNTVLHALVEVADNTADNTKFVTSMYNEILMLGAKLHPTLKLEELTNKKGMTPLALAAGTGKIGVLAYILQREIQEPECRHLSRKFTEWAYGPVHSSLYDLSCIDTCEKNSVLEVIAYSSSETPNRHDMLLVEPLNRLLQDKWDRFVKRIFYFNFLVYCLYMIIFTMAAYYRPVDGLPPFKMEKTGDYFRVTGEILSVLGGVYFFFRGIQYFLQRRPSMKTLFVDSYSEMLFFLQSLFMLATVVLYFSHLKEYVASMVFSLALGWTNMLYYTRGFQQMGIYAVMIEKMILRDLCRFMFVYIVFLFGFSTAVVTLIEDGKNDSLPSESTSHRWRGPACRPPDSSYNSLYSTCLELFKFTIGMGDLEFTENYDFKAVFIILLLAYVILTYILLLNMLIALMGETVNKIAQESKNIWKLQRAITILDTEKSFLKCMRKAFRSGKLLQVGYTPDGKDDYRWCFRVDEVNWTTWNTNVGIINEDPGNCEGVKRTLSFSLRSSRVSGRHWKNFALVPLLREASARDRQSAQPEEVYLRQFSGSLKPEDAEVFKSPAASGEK
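Fluo-8 calcium influx in TRPV1-expressing cells, kinetic read (ex 480/em 520 nm). Compound added and read 3 min for agonist activity, followed by capsaicin at EC20 final and 2 min further read for enhancement.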
Menin MLL FP FL = qHTS Assay for Inhibitors Targeting the Menin-MLL Interaction in MLL Related Leukemias: Competition With Fluorescein Labeled MLL-derived Peptide. Fluorescence polarization, fluorescein-MLL peptide displacement from menin. FP activity change, % at 61.4 µM. 290,000 tested, under 10 active; inconclusive = falling polarisation curve, or a change in total fluorescence; inactive = total fluorescence flat and polarisation flat or rising; no compound was filed as active; the % refers to the polarisation; negative = inhibition;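 note: % of control where 0% means no effect; inhibitors lower the polarisation; unlabelled MLL peptide was the positive control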
CtBP-E1A blk = qHTS Assay for Inhibitors of the CtBP/E1A Interaction | AlphaScreen GST-E1A/His-CtBP binding, 1536-well; hits give low values; control for the full effect not named in the record | 0.49% of 340,000 active | activity change, % (concentration not given with the values) | CtBP / adenovirus E1A interaction (AlphaScreen); in the data active means activity change below about -65%; inconclusive means about -30% to -65%; inactive means above about -30%; note: % is set by controls: 0 for no effect and ±100 for the full control effect
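Homogeneous bead-based format: GST-tagged E1A captured on glutathione donor beads, His-tagged CtBP on nickel acceptor beads; compounds precede bead addition by 2 h at 37 °C.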
ClpP mod = qHTS Assay for Activators of ClpP; purified B. subtilis ClpP, FRET peptide cleavage, 20 min; Potency, µM (titrated, usually from 57.5 µM), inactives show top-dose activity change, negative = active; 1.9% of 340,000 active; AID 651965, 2013; active = well fitted falling curve with a large enough effect; inconclusive = small, poorly fitted or top-dose-only effect; inactive = no such curve, though single readings can be large or run the other way; note: potency is the fitted concentration of half-maximal effect; the source files actives as falling curves though it sought activators and does not explain the sign; nearly all actives have a fitted effect of over 65% in size; many hits overshoot -100%
Target sequence (P80244 whole entry, looked up): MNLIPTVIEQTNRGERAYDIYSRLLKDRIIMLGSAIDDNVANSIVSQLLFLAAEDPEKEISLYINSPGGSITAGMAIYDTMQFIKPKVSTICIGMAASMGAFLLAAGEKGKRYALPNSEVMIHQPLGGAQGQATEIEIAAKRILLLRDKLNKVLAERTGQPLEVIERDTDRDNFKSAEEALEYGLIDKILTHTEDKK
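ClpP 10 microg/mL final, pH 8 Tris/KCl buffer with BSA, glycerol, Tween-20; compound pinned in; FRET-FV substrate; RT 20 min; Ex320/Em430; ΔFRET vs ADEP 5.8 microM, DMSO, no enzyme.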
gsp antagonist = qHTS for Antagonists of gsp, the Etiologic Mutation Responsible for Fibrous Dysplasia/McCune-Albright Syndrome: qHTS | gsp-mutant cells, cAMP HTRF, 30 min; control for the full effect not named in the record | Potency, µM (series often up to 76.9 µM), for the others: top-dose activity change, negative = inhibition, hits mostly inhibitors | 0.4% of 340,000 active; active = falling curve of any shape with a large fitted effect; inconclusive = falling curve, mostly with a smaller effect; inactive = flat or rising curve; cell line not stated here;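 note: intracellular cAMP measured with PDE inhibitor Ro 20-1724 present during compound exposure; potency is the fitted concentration of half-maximal effect; % is set by controls: 0 for no effect and ±100 for the full control effect; nearly all actives have a fitted effect of over 65% in size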
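Measurement of cellular cAMP by homogeneous time-resolved fluorescence following a 30 min compound exposure at 37C. The PDE inhibitor […] was present throughout; the assay buffer was DPBS with 0.05% BSA and 0.005% Tween 20.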
gsp ag = qHTS for Agonist of gsp, the Etiologic Mutation Responsible for Fibrous Dysplasia/McCune-Albright Syndrome: qHTS; gsp mutant cells, cAMP HTRF, 30 min; control for the full effect not named in the record; Potency, µM (highest dose often 76.9 µM), for the others: at the top dose activation (cAMP increase), most hits filed as activators; 0.13% of 340,000 active; AID 624287, 2012; active = well fitted activation curve with a large enough effect; inconclusive = small, poorly fitted or top-dose-only effect, or another doubt; inactive = no such curve, though single readings can be large or run the other way; cell line not stated here;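 note: phosphodiesterase inhibitor Ro 20-1724 added with compounds to block cAMP breakdown; potency is the fitted concentration of half-maximal effect; nearly all actives have a fitted effect of over 60% in size; about a fifth of the inactives were tested at one dose only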
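Cells in DMEM/10% FBS with G418 were pretreated with compounds in DMSO plus […] (300 uM stock) for 30 min at 37C. cAMP was measured by HTRF (cAMP-d2 plus anti-cAMP antibody-K) after 30 min at room temperature.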
Sfp inh = qHTS Assay for Inhibitors of Bacillus subtilis Sfp phosphopantetheinyl transferase (PPTase); 4'-phosphopantetheinyl transferase ffp (Bacillus subtilis), Q9F4F7; Biochemical Sfp PPTase activity, qHTS; Potency, µM, without a hit: max response, negative = inhibition, actives largely listed as inhibitors; 3.5% of 310,000 active; active = well fitted inhibition curve with a large enough effect; inconclusive = small, poorly fitted or top-dose-only effect, or another doubt; inactive = no such curve, though single readings can be large or run the other way;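 note: the enzyme is Sfp with the accession as filed and its product quenches rhodamine fluorescence; potency is the fitted concentration of half-maximal effect; 0% = enzyme reaction without inhibitor and -100% = no enzyme wells; top concentration of the series not given in the record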
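Reaction rates are the 30-min fluorescence difference (ex 525, em 598 nm) in wells containing 15 nM Sfp, 5 uM rhodamine-CoA and 12.5 uM BHQ-2-YbbR at pH 7.6 with 10 mM MgCl2.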
* hit, by the source's call; ? = inconclusive; . = no result given; & = joins results of further samples; [ ] = remark or other dose.

SMILES	TRPV1 PAM	Menin MLL FP FL	CtBP-E1A blk	ClpP mod	gsp antagonist	gsp ag	Sfp inh
CN(C)C(CNC(=O)c1cccnc1Sc1ccccc1)c1ccco1 (stereo not given)	0	2.6	-5	-5.0%	2%	9%	9%
Cc1ccc(C(C(=O)NCc2ccccc2)N(C(=O)c2csnn2)C2CC2)cc1 (stereo not given)	?	-0.5	3	.	-2%	-20%	11%
O=C(NC(=S)Nc1ccc(S(=O)(=O)N2CCCC2)cc1)C1CC1	-2	-0.8	-17	-2.5%	-22%	-8%	-19%
CCn1c(SC(C)C(=O)NCC2CCCO2)nc2scc(-c3ccccc3)c2c1=O (stereo not given)	-30	.	21	.	-25%	-4%[15.4 µM]	.
O=C(Nc1cccc2ccccc12)N1CCc2ccccc2C1	-7	1.3	-4	?	-8%	1%	9%
C=CCn1c(=NC(=O)c2cccc(N3C(=O)CCC3=O)c2)sc2cccc(OC)c21	-2	4.4	5	.	?	-4%[15.4 µM]	-1%
Cc1cc(NC(=O)CSCc2nc(-c3cccc(Cl)c3)oc2C)no1	4	5.4	-24	-14%	7%	7%	13%
CC1CC(C)CN(C(=O)c2cccc3c2-c2ccccc2C3=O)C1 (stereo not given)	-11	2.2	.	-0.9%	2%	4%	-16%

Ordered by length of the SMILES (lowest first): five of the compounds above.
SMILES	TRPV1 PAM	Menin MLL FP FL	CtBP-E1A blk	ClpP mod	gsp antagonist	gsp ag	Sfp inh
O=C(Nc1cccc2ccccc12)N1CCc2ccccc2C1	-7	1.3	-4	?	-8%	1%	9%
Cc1cc(NC(=O)CSCc2nc(-c3cccc(Cl)c3)oc2C)no1	4	5.4	-24	-14%	7%	7%	13%
O=C(NC(=S)Nc1ccc(S(=O)(=O)N2CCCC2)cc1)C1CC1	-2	-0.8	-17	-2.5%	-22%	-8%	-19%
Cc1ccc(C(C(=O)NCc2ccccc2)N(C(=O)c2csnn2)C2CC2)cc1 (stereo not given)	?	-0.5	3	.	-2%	-20%	11%
C=CCn1c(=NC(=O)c2cccc(N3C(=O)CCC3=O)c2)sc2cccc(OC)c21	-2	4.4	5	.	?	-4%[15.4 µM]	-1%

Next section.
SMILES	TRPV1 PAM	Menin MLL FP FL	CtBP-E1A blk	ClpP mod	gsp antagonist	gsp ag	Sfp inh
CN(C(=S)Nc1ccc(F)cc1)C1(c2ccccc2Cl)CCCCC1=O (stereo not given)	-11	-1.7	2	-1.1%	17%	18%	1%
CC1CCCN(C(=O)CCNC(=O)Cn2cnc3ccccc3c2=O)C1 (stereo not given)	-3	2.9	-2	.	7%	?	12%
Cc1cc(C)nc(SCC(=O)n2c3c(c4ccccc42)CCCC3)n1	8	.	2	-1.7%	-1%	5%	7%
CC(C)(C)NC(=O)COC(=O)c1cc(S(=O)(=O)N2CCCCC2)ccc1N1CCOCC1	3	2.3	1	-7.1%	-10%	?	4%
Cc1cc(C(C)c2ccccc2)c(O)c(CN2CCOCC2)c1C (stereo not given)	10	4.0	-17	-0.8%	?	14%	?
C=CCOC(=O)/C(=C\c1ccccc1)NC(=O)c1ccc(C)cc1	1	-1.5	.	-0.2%	-11%	-61%[inhibitor]	10%
CC(C)(C)NC(=O)NC(=O)CSc1ncn[nH]1	0	-1.3	-7	.	.	-15%[15.4 µM]	11%
COc1ccc(CNC(=O)c2ccc(C)o2)cc1	4	3.0	0	-0.8%	12%	0%	-3%

Continuation:
SMILES	TRPV1 PAM	Menin MLL FP FL	CtBP-E1A blk	ClpP mod	gsp antagonist	gsp ag	Sfp inh
CC(C)(C)c1ccc(OCCCNCc2ccccc2)cc1	-16	6.5	6	1.5%	9%	3%	-43%
c1ccc2c(c1)nnn2-c1ncnc2sc3c(c12)CCCC3	-12	-0.1	12	?	-22%	2%	-8%
C/C(CCN1CCc2nc(-c3ccccc3)c(-c3ccccc3)cc2C1)=N\O[C@@H](C)c1cn([C@H](CO)Cc2ccccc2)nn1	8	-2.0[11.7 µM]	.	.	.	.	24%&8%&10%
CC(=O)NC12CC3CC(C1)CC(C(=O)N1CCN(S(=O)(=O)c4ccc(C(C)C)cc4)CC1)(C3)C2	-17	.	0	0.5%	14%	-15%	.
O=C(Cn1nc(-c2cccc(Cl)c2)ccc1=O)Nc1ccccc1Br	-14	9.4	3	.	-12%	-7%[15.4 µM]	-2%
COC(=O)CSc1nc2nc(C)cc(C)n2n1	25	-0.1	1	-6.4%	3%	-29%	15%
C=CCNc1oc(/C=C/c2ccccc2)nc1C#N	-14	-0.1	13	88%	14%	20%	14%
COc1ccc(S(=O)(=O)N(C)C[C@H]2Oc3c(NC(=O)NC4CCCCC4)cccc3C(=O)N([C@H](C)CO)C[C@@H]2C)cc1	.	.	-1	-1.0%	-17%	.	.

Remaining list, next part:
Values run as follows: TRPV1 PAM, Menin MLL FP FL, CtBP-E1A blk, ClpP mod, gsp antagonist, gsp ag, Sfp inh
> Cc1ccc2cc(C#N)c(N3CCCN(C(=S)NCCCN(C)C)CC3)nc2c1
 : 2, 0.2, -1, ., 5%, -67%[inhibitor], -6%
> CCOC(=O)Cc1csc(NC(=O)c2sc3nc4ccc(C)cc4cc3c2N)n1
 : ., ?, -4, -2.9%, 6%, -21%, 3%
> O=C(CN1C(=O)NC(c2ccccc2)(c2ccccc2)C1=O)N1CCCCC1
 : ., ., 2, 5.3%, 7%, 14%, .
> CN1C(c2ccccc2)CC(=NO)CC1c1ccccc1 (stereo not given)
 : -5, 2.1, ., -0.2%, -2%, -2%, -5%
> Cn1cccc1C(=O)NCC(c1ccco1)N1CCCCC1 (stereo not given)
 : ?, ., -3, ., 3%, 12%[15.4 µM], .
> CC(C)NC(=O)CC1OC(=O)c2ccccc21 (stereo not given)
 : ?, 2.2, 3, -0.2%, 7%, 0%, -5%
> CC1(C)Oc2cc3oc(=O)ccc3cc2C[C@@H]1O
 : ., ., 12, 3.5%, 7%, ., .
> CC(NC(=O)CN(C1CCCCC1)S(C)(=O)=O)c1ccccc1 (stereo not given)
 : 6, -0.1, 5, 0.1%, 10%, ?, 25%
> Clc1ccc(-c2nnc(COc3ncnc4sccc34)o2)cc1
 : 10, 0.1, 6, 0.1%, -2%, 15%[15.4 µM], -13%
> O=C(/C=C/c1cn(CC(O)CN2CCCCCC2)c2ccccc12)c1cccs1 (stereo not given)
 : 1, ?, 0, -10%, -2%, 3%[15.4 µM], -7%
> COC(=O)N1CC(=O)N(OC)C1c1ccc(Cl)cc1Cl (stereo not given)
 : 2, 1.9, 2, -0.8%, 8%, -4%, 15%
> Cc1ccc(NC(=O)CN(Cc2ccccc2)S(C)(=O)=O)cc1C
 : 8, 5.9, 5, -0.1%, -19%, 0%, 20%
> c1cc(SSc2ccncc2)ccn1
 : 12, ?, ., -1.7%, 1%, 6%, 35µM*
> CCC(C)OC(=O)C1=C(C)NC(=O)NC1c1ccc(F)cc1 (stereo not given)
 : ., 0.1, 9, -1.4%, 1%, ?, 1%
> Cc1ccc(CSCC(=O)NCc2ccc3c(c2)OCO3)cc1
 : -3, -0.3, 11, ., -4%, -21%[15.4 µM], 8%

Whole records, quoted from the list.
Cc1cc(C)nc(SCC(=O)n2c3c(c4ccccc42)CCCC3)n1 as listed: TRPV1 PAM = 8; Menin MLL FP FL = .; CtBP-E1A blk = 2; ClpP mod = -1.7%; gsp antagonist = -1%; gsp ag = 5%; Sfp inh = 7%
Cc1ccc2cc(C#N)c(N3CCCN(C(=S)NCCCN(C)C)CC3)nc2c1 as listed: TRPV1 PAM = 2; Menin MLL FP FL = 0.2; CtBP-E1A blk = -1; ClpP mod = .; gsp antagonist = 5%; gsp ag = -67%[inhibitor]; Sfp inh = -6%

Following part:
Values run as follows: TRPV1 PAM, Menin MLL FP FL, CtBP-E1A blk, ClpP mod, gsp antagonist, gsp ag, Sfp inh
> Cc1ccc(SC(C)C(=O)N2CCN(c3ccccc3)CC2)cc1 (stereo not given)
 : 2, 1.6, -2, ., 4%, 9%, 16%
> Clc1ccc(-n2ncc3c(NCCN4CCOCC4)ncnc32)cc1
 : 13, -1.4, -2, ?, 3%, 0%, 12%
> Cn1c(CNC(=O)CCNC(=O)c2ccccc2)cc(=O)n(C)c1=O
 : -3, 1.6, ., -1.5%, -1%, -21%, 6%
> CCOc1ccc(NC(=O)[C@H](C)NC(=O)C2CC(=O)N(c3ccc(OC)cc3)C2)cc1 (stereo not given in full)
 : -18, ., -12, -5.9%, 3%, -28%, 10%
> COc1cc(CN=Cc2c(O)n(Cc3ccccc3)c(=S)[nH]c2=O)cc(OC)c1
 : 3, 2.6, 5, 1.0%, -24%, 0%[15.4 µM], 7%
> CCCn1c(N)c(N2CCCCC2)c(=O)n(CC(=O)Nc2ccc(C(C)=O)cc2)c1=O
 : ., ., -4, 0.1%, -1%, 8%[15.4 µM], .
> COc1ccc(C(=O)COC(=O)c2cc(S(=O)(=O)N3CCCCC3)ccc2N2CCOCC2)c(OC)c1
 : 8, ., -4, ?, -4%, ?, .
> Cc1ccc(-c2nnc(-c3ccc(NC(=O)c4ccco4)cc3)o2)cc1
 : ?, 1.6, -7, 32µM*, 53%[activator], 12%, -2%
> CC(C)(C)C(=O)NC(=C(Cl)Cl)P(=O)(O)O
 : 15, 0.9, 5, -0.1%, 12%, -15%, 6%
> COc1ccc(CC(=O)Oc2ccccc2C)cc1
 : 25, 1.8, 27, ., -6%, -33%[inhibitor], -1%
> COc1cc2c(cc1OC)[C@@H]1Cc3cc4c(cc3[C@H](C2)N1C)OCO4
 : -11, 2.6, 0, -0.9%, 8%, -109%[inhibitor], 11%
